Screening results from PubChem.
A647 autofl: qHTS Assay for Spectroscopic Profiling in A647 Spectral Region. Compound fluorescence, A647 channel (570/671 nm), Tris buffer. 59,000 tested, under 10 active. max dye-equivalent concentration, M; active means above 1 µM dye equivalent; inconclusive means 0.1 to 1 µM; inactive means 0.1 µM or less;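 further: values scaled relative to a standard on each plate; highest value over a series up to 38 µM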
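Spectral profiling of library compounds in pH 8.0 Tris: 15 min room-temperature incubation, single ex/em pair (570/671 nm), response normalized to Alexa 647 equivalents.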
Resorufin fluor: qHTS Assay for Spectroscopic Profiling in Resorufin Spectral Region; Compound fluorescence, resorufin region 547/598 nm, buffer; hits give high values; max dye-equivalent concentration, M; actives 0.04% (n = 59,000); AID 588, 2007; active = above 10 nM dye equivalent; inconclusive = 1 to 10 nM; inactive = 1 nM or less; a few of its hits are not listed in these tables; further: highest value over a series up to 38 µM
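Read-out: intrinsic compound fluorescence at ex 547/em 598 nm after 15 min at RT in pH 8.0 Tris (100 mM). Values expressed as resorufin-equivalent concentration from per-plate standard series.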
A488 fluor: qHTS Assay for Spectroscopic Profiling in A488 Spectral Region | compound autofluorescence, A488 spectral region, dye equivalency; hits give high values | max dye equivalency, M | actives 0.1% (n = 59,000); active = above 10 nM dye equivalent; inconclusive = 1 to 10 nM; inactive = 1 nM or less; about half of its hits are not listed in these tables;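 further: highest value over a series up to 38 µM; compound alone in buffer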
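Compounds pin-transferred into 100 mM Tris buffer, pH 8.0, incubated 15 min at room temperature, then imaged with 480 nm excitation/540 nm emission filters. Fluorescence converted to Alexa 488 dye-equivalent concentration via an on-plate six-point A488 standard curve.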
AID923: qHTS Assay for Allosteric/Competitive Inhibitors of Caspase-1: Spectroscopic Profiling in AFC Spectral Region; actives 1.1% (n = 75,000); compound fluorescence, AFC spectral region (405/520 nm); almost no hit is shown here; Potency, µM (series often up to 57.5 µM), for inactives: at the highest dose fluorescence increase, usual class: activators; AID 923, 2007; active means well fitted activation curve with a large enough effect; inconclusive means small, poorly fitted or top-dose-only effect;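 further: potency means the concentration at half of the fitted maximal effect; 0% is about no effect; scaled to a free AFC standard on each plate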
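Titrations up to 57 uM read every 20 sec for 3 min (405/520 nm) with 50 nM caspase 1 and 5 uM Ac-WEHD-AFC, pH 7.5 HEPES buffer. Fluorescence-vs-time intercept gave baseline, scaled against on-plate AFC standard.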
TSHR agonist: qHTS Assay for Agonists of the Thyroid Stimulating Hormone Receptor. Potency, µM (doses to about 57.1 µM), inactives show top-dose activation, usual class: activators. HEK293-CNG-TSHR cells (CNG channel as cAMP sensor), membrane potential dye, cAMP. actives 0.48% (n = 73,000). Thyrotropin receptor (Homo sapiens), P16473; active = well fitted activation curve of enough size with the parental cells flat; inconclusive = any curve in the parental cells; inactive = parental cells flat and receptor cells flat or falling; further: potency means the concentration at half of the fitted maximal effect; % of control where 0% means no effect; weak receptor curves with flat parental cells got no call and are not listed
Target sequence (P16473 whole entry, looked up): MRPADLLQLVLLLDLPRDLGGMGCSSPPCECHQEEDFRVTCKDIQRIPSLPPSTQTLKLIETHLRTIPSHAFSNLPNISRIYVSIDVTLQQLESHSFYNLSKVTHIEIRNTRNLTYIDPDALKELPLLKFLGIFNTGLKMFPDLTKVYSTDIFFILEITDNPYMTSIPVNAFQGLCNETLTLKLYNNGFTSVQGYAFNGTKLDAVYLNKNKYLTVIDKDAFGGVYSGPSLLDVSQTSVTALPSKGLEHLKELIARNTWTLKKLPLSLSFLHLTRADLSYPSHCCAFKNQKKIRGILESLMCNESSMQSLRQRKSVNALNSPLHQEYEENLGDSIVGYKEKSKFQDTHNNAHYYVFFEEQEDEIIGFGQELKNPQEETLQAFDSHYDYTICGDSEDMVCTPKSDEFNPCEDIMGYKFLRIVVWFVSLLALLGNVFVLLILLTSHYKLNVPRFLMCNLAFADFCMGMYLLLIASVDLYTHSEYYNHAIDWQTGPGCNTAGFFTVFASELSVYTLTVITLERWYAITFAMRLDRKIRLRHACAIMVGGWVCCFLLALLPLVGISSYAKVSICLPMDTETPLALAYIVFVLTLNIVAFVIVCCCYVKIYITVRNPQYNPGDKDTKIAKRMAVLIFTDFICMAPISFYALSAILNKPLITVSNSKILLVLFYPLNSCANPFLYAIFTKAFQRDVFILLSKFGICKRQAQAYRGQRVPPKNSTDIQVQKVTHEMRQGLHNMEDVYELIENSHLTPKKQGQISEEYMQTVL
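cAMP rise detected as CNG-channel membrane depolarization by fluorescent dye (emission 590 nm), 30 min after compound, following 60 min dye loading containing 100 uM RO 20-1724 at room temperature. Cells: TSHR/CNG HEK 293, with parental CNG HEK 293 as control.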
Numbers without * were called inactive; i = inactive; ? = inconclusive; . = not tested or not shown; [ ] = another dose, or the depositor's remark.

Below each compound – AID923	Resorufin fluor	TSHR agonist	A647 autofl	A488 fluor
O=C(O)c1cccc(Cn2cc(Cl)cn2)c1
    -1.3%	i	-2%	3.2e-09	i
Cc1cc2nc(C(F)(F)F)[nH]c(=O)n2n1
    -2.1%	i	?	1e-09	i
CCCCOc1nc2ccccc2nc1C(C#N)S(=O)(=O)c1ccccc1 (centres undefined)
    0.4%	i	8%	1e-09	i
Cc1ccc2occ(C(c3nnnn3Cc3ccccc3)N3CCOCC3)c(=O)c2c1 (centres undefined)
    0.2%	i	3%	2.4e-08	i
Cc1[nH]c2ccccc2c1C(c1ccccn1)N1CCC(C(N)=O)CC1 (centres undefined)
    0.4%	i	?	4.3e-08	i
Cc1cc(=O)[nH]c(SCCOc2ccc3c(c2)CCC3)n1
    -0.6%	i	.	1e-09	i
O=C(Cn1nc(-c2ccc(Cl)cc2)ccc1=O)N1CCN(c2ccccc2)CC1
    -2.3%	i	6%	4.8e-08	i
CCOC(=O)N1CCN(C(=O)CCSc2ccccc2)CC1
    2.6%	.	14%	.	.
Cc1nn(C(=O)N2CCCCC2)c(C)c1CN1C(=O)c2ccccc2C1=O
    -1.4%	i	11%	4e-08	i
CC(=O)CC(=O)Nc1ccccc1
    -0.3%	.	1%	.	.

The listing continues.
Below each compound – AID923	Resorufin fluor	TSHR agonist	A647 autofl	A488 fluor
Cc1ccc(-c2nc(NCCN3CCOCC3)c3ccccc3n2)cc1
    4.4%	.	-1%[11.4 µM]	.	.
CCOC(=O)N1CCN(C(=O)CSc2nc3c([nH]c4ccccc43)c(=O)n2C)CC1
    3.6%	.	3%	.	.
CCCn1nnc(NC(=O)C(C)Oc2ccc(Cl)cc2Cl)n1 (centres undefined)
    1.2%	i	2%	3.6e-08	i
Cc1sc2ncn(CC(=O)OCC(=O)NC(C)(C)C)c(=O)c2c1C
    -0.7%	i	14%	2.4e-08	i
Cc1ccc(-c2nnc(-c3ccc4ccccc4c3)o2)cc1
    4.5%[11.5 µM]	i	?	2.3e-08	i
Cc1nn(C)c(C)c1S(=O)(=O)NC1CCCC1
    0.6%	i	3%	1e-09	i
O=C(O)c1ccc(NS(=O)(=O)c2cc(Cl)ccc2Cl)cc1
    -0.9%	.	13%	.	.
COCCOC(=O)c1c(C)nc(SCC(=O)Nc2ccc(C)cc2)c(C#N)c1-c1ccco1
    .	i	.	1.5e-08	i
CCOC(=O)C(C)n1cnc2c(nnn2Cc2ccc(C)cc2)c1=O (centres undefined)
    0.7%	i	6%	4e-09	i
CCc1ccc(C2CC(c3ccccc3Cl)Nc3nc(N)nn32)cc1 (centres undefined)
    -2.3%	.	10%	.	.

Next part.
Below each compound – AID923	Resorufin fluor	TSHR agonist	A647 autofl	A488 fluor
Cc1ccc(SCc2cc(=O)[nH]c(N3CCN(Cc4ccccc4)CC3)n2)cc1
    0.3%	i	-1%	6.9e-09	i
CCOc1ccc(N2C(=O)CC(/C=C3/N(C)c4ccccc4C3(C)C)C2=O)cc1 (centres undefined)
    -2.2%	i	1%	5.5e-09	i
CCOc1ccccc1-n1c(SCC(=O)N(CC)CC)nnc1-c1ccccn1
    -1.3%	i	-3%	4.1e-09	i
O=C(Nc1ccc2[nH]c3c(c2c1)CCCC3)c1ccco1
    19%	i	-13%	2.2e-08	i
COc1ccc(C(C(=O)NC(C)(C)C)N(Cc2ccco2)C(=O)CCC(=O)Nc2cc(C)on2)cc1 (centres undefined)
    -2.5%	i	9%	3.5e-09	i
Cn1nc(C(=O)NC2CCCCC2)c2ccccc2c1=O
    -0.3%	i	15%	4.8e-08	i
Cc1sc2ncnc(SCC(=O)N3CCCC3)c2c1C
    4.5%	.	17%	.	.
COc1cc(C2C(C(=O)c3ccc(C)o3)=C(O)C(=O)N2c2cc(C)on2)cc(Br)c1O (centres undefined)
    0.0%	i	14%	3.1e-08	i
Cc1scc(C(=O)Nn2cnnc2)c1-c1ccccc1
    -0.9%	i	1%	8.4e-09	i
O=C(CCCSc1nc2ccccc2s1)NCc1ccco1
    -0.1%	i	0%[11.4 µM]	2.7e-08	i

The results go on:
Below each compound – AID923	Resorufin fluor	TSHR agonist	A647 autofl	A488 fluor
Cc1ccc(C(=O)C(C)OC(=O)C2=COCCO2)cc1C (centres undefined)
    -1.9%	i	2%	5.3e-09	i
O=C(CCn1c(=O)[nH]c2ccsc2c1=O)N1CCN(Cc2ccc3c(c2)OCO3)CC1
    -1.0%	i	4%	4.1e-08	i
Cc1ccc(S(=O)(=O)N2CCN(C3CCN(Cc4ccccc4)CC3)CC2)cc1
    1.3%	i	9%	3.7e-09	i
Cc1ccc(Cl)cc1N1CCN(C(=O)c2ccc(NS(=O)(=O)c3c(C)noc3C)cc2)CC1
    0.6%	i	10%	1.6e-09	i
O=C(Nc1ccc2nc(-c3ccccc3)oc2c1)c1ccco1
    -0.1%	i	0%[11.4 µM]	3.2e-09	i
Cc1ccc2cc(CN(C)C(=O)C3CCCO3)c(=O)[nH]c2c1 (centres undefined)
    0.0%	i	2%	1e-09	i
CCc1ccc2[nH]c(=O)c(CN(CCCN3CCOCC3)C(=O)Nc3cccc(Cl)c3)cc2c1
    2.6%	i	-12%	2.9e-08	i
CC(C)=CCC/C(C)=C/CO/N=C1/C[C@@H](O)[C@@H](O)[C@@H]2[C@@H]3C(=O)N([C@@H](C)c4ccccc4)C(=O)[C@H]3CC[C@H]12
    2.3%[11.5 µM]	.	25%[11.4 µM]	.	.
O=C(c1ccc(CNS(=O)(=O)c2ccccc2)cc1)N1CCN(c2ccccn2)CC1
    -0.3%	i	?	1.5e-08	i
COc1ccccc1NC(=O)N1c2ccc(F)cc2CCC1C (centres undefined)
    8.6%	.	10%	.	.

Other entries.
Below each compound – AID923	Resorufin fluor	TSHR agonist	A647 autofl	A488 fluor
O=C(Nc1ccc(Oc2ncccn2)cc1)c1ccco1
    0.5%	i	7%	2e-09	i
CCCCOC(=O)c1ccc(NC(=O)c2ccoc2C)cc1
    1.2%	i	3%	3e-09	i
COC(=O)c1cc(OC)c(OC)cc1NC(=O)CSc1nnnn1Cc1ccccc1
    -1.7%	i	?	2.5e-08	i
CN1C(=O)C[C@H](c2ccccc2)C1=O
    -1.5%[25.7 µM]	i	?	7.3e-09	i
Cc1cc(=O)n2nc(N3CCCC(C(=O)NCCCN4CCc5ccccc5C4)C3)sc2n1 (centres undefined)
    -0.8%	i	-6%[11.4 µM]	2.1e-09	i
CCc1cc(=O)oc2cc(C)cc(OCc3nn[nH]n3)c12
    -1.9%	i	0%	9.3e-09	i
CCn1c(COc2cccc(OC)c2)nnc1SCC(=O)Nc1ccccc1C(=O)OC
    0.6%	i	?	4.7e-09	i
Cc1cccc(-n2ncc3c(NCc4ccccn4)ncnc32)c1
    0.5%	i	-4%	4e-08	i
O=C(Nc1ccc(N2CCOCC2)cc1)C1CCCN(S(=O)(=O)c2cccc(C(F)(F)F)c2)C1 (centres undefined)
    0.6%	i	27%	1e-09	i
O=C(NCC1CCCO1)c1ccc(N2CCCCC2)nc1 (centres undefined)
    -2.3%	i	-6%[11.4 µM]	1e-09	i

Reformatted as labelled records: entries from further up.
O=C(Nc1ccc(Oc2ncccn2)cc1)c1ccco1
  AID923: 0.5%
  Resorufin fluor: i
  TSHR agonist: 7%
  A647 autofl: 2e-09
  A488 fluor: i
CCc1cc(=O)oc2cc(C)cc(OCc3nn[nH]n3)c12
  AID923: -1.9%
  Resorufin fluor: i
  TSHR agonist: 0%
  A647 autofl: 9.3e-09
  A488 fluor: i
O=C(NCC1CCCO1)c1ccc(N2CCCCC2)nc1 (centres undefined)
  AID923: -2.3%
  Resorufin fluor: i
  TSHR agonist: -6%[11.4 µM]
  A647 autofl: 1e-09
  A488 fluor: i
O=C(Nc1ccc(N2CCOCC2)cc1)C1CCCN(S(=O)(=O)c2cccc(C(F)(F)F)c2)C1 (centres undefined)
  AID923: 0.6%
  Resorufin fluor: i
  TSHR agonist: 27%
  A647 autofl: 1e-09
  A488 fluor: i

Continued.
Below each compound – AID923	Resorufin fluor	TSHR agonist	A647 autofl	A488 fluor
Cc1cccc(-c2noc(CN(C)S(=O)(=O)c3cc(Cl)ccc3Cl)n2)c1
    3.5%	i	?	1.2e-09	i
NC(=O)c1ccsc1NC(=O)COC(=O)C1CCCN1C(=O)c1cccs1 (centres undefined)
    -0.5%	i	-1%	1.5e-08	i
COc1cc(OC)cc(-c2nnc(SCC(=O)N3CCCC3)o2)c1
    0.8%	i	9%	1.2e-09	i
CC1(C)C2CCC1(C)C(NC1=NCCC1)C2 (centres undefined)
    -0.1%	i	12%	3.7e-08	i
c1ccc(Cn2c(CNc3nc4ccccc4n3CCN3CCOCC3)nc3ccccc32)cc1
    -0.5%	i	16%	3.8e-08	i
CC(Oc1ccc(Cl)cc1Cl)C(=O)NC1CCSC1=O (centres undefined)
    -1.7%	i	15%	1e-09	i
COc1ccc(-n2ncc3c(NCCCN4CCOCC4)ncnc32)cc1
    -0.4%	i	-3%	1e-09	i
CC(C)OCCCNC(=O)c1cc2c(s1)CS(=O)(=O)C2
    0.9%	i	?	1.5e-09	i
O=C(O)c1ccc([N+]2=Cn3c(nc4ccccc43)C2)cc1
    0.6%[11.5 µM]	i	7%[11.4 µM]	1e-09	i
CCOCCCNC(=O)c1c[nH]c2cc(C)ccc2c1=O
    -1.1%	i	-6%	1.8e-09	i

The list continues.
Below each compound – AID923	Resorufin fluor	TSHR agonist	A647 autofl	A488 fluor
Cc1cc(N2CCN(Cc3ccc4c(c3)OCO4)CC2)n2ncnc2n1
    0.3%	i	0%	3.9e-09	i
COC(=O)Cn1ncc2c(C)n(Cc3ccccc3)c(C)c2c1=O
    -2.7%	.	?	.	.
O=C(COc1ccc(Cl)cc1)NC1CCSC1=O (centres undefined)
    -0.5%	i	1%	2.8e-08	i
COCCNC(=O)CS(=O)Cc1nc(-c2ccc(OC)cc2)oc1C (centres undefined)
    -0.2%	.	-5%	.	.
CC(C)C[C@H](N)c1nnc(S(=O)(=O)Cc2ccc(F)cc2)o1
    0.1%	i	-1%	1e-09	i
O=C1CC(C(=O)Nc2ccccc2)N=C(N2CCOCC2)N1 (centres undefined)
    -0.2%	i	6%	1e-09	i
Cc1ccc2c(c1)c1c(n2CC(O)CN2C(=O)CNC2=O)C(=O)CCC1 (centres undefined)
    4.0%	.	-7%	.	.
Cc1c(C(=O)Nc2c(C)n(C)n(-c3ccccc3)c2=O)oc2ccccc12
    -0.7%	i	18%	3.8e-08	i
Cc1nc(CN2CCN(C(=O)c3ccc(Br)cc3)CC2)cs1
    1.6%	i	-8%	2e-08	i
O=S(=O)(NCc1cn2ccsc2n1)c1ccc(Oc2ccccc2)cc1
    0.8%	i	?	2.2e-08	i

(list continues)
Below each compound – AID923	Resorufin fluor	TSHR agonist	A647 autofl	A488 fluor
CC(=O)N1C2(C=CC1(C)C(=O)NCc1ccccn1)CCCCC2 (centres undefined)
    4.7%	.	3%	.	.
Cc1ccc2c(c1)-c1c(cnn1CC(=O)O)CO2
    1.9%	i	6%	1e-09	i
COc1ccc(CCN(C)CCCOc2ccc(S(=O)(=O)c3[nH]c4ccccc4c3C(C)C)cc2)cc1OC
    0.0%	.	?	.	.
OCCSc1nc(-c2cccnc2)nc2ccccc12
    1.7%	i	6%	9.6e-09	i
Cc1cc(C(F)(F)F)nn1-c1nc(-c2ccco2)cc(C(F)(F)F)n1
    0.6%	i	?	1e-09	i
CC(C)C1N=C2c3ccccc3N=C(SCc3cc(=O)n4ccccc4n3)N2C1=O (centres undefined)
    0.6%	i	3%	5.5e-09	i

An excerpt. The share of hits here may be higher or lower than overall.
